# Compound activity deposited in PubChem by National Center for Advancing Translational Sciences (NCATS).
# ClpP mod: qHTS Assay for Activators of ClpP; purified B. subtilis ClpP, FRET peptide cleavage, 20 min; actives 1.9% (n = 340,000); Potency, µM (series often up to 57.5 µM), for the others: at the top dose activity change, negative = active; ATP-dependent Clp protease proteolytic subunit (Bacillus subtilis (strain 168)), P80244; active = well fitted falling curve with a large enough effect; inconclusive = small, poorly fitted or top-dose-only effect; inactive = no such curve, though single readings can be large or run the other way; also: potency is read from the fitted curve at half-maximal effect; the source files actives as falling curves though it sought activators and does not explain the sign; nearly all actives have a fitted effect of over 65% in size; many hits overshoot -100%
# Target sequence (P80244 whole entry, looked up): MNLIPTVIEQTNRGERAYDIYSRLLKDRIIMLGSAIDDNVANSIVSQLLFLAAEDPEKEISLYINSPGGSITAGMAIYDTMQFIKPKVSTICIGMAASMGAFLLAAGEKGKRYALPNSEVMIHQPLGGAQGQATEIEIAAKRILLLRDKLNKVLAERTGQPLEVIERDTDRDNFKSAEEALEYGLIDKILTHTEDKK
#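 FRET quenching reversal measured ClpP activation: 10 microg/mL B. subtilis ClpP at pH 8 with the FRET-FV decapeptide, read at 430 nm after 320 nm excitation. The 20-min minus 0-min signal was scaled between DMSO/no-enzyme wells and ADEP (5.8 microM final).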
# gsp agonist: gsp mutant agonism | gsp mutant cells, cAMP HTRF, 30 min; control for the full effect not named in the record | Potency, µM (series often up to 76.9 µM), inactives show top-dose activation (cAMP increase), usual class: activators | actives 0.13% (n = 340,000); active = well fitted activation curve with a large enough effect; inconclusive = small, poorly fitted or top-dose-only effect, or another doubt; inactive = no such curve, though single readings can be large or run the other way; cell line not stated here;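 also: phosphodiesterase inhibitor Ro 20-1724 added with compounds to block cAMP breakdown; potency is read from the fitted curve at half-maximal effect; nearly all actives have a fitted effect of over 60% in size; about a fifth of the inactives were tested at one dose only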
#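 Cells in DMEM/10% FBS with G418 were pretreated with compounds in DMSO plus […] (300 uM stock) for 30 min at 37C. cAMP was measured by HTRF (cAMP-d2 plus anti-cAMP antibody-K) after 30 min at room temperature.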
# PINK1 expr mod: changes PINK1 expression. PINK1 immunofluorescence, high-content cytometry, 24 h. Potency, µM (highest dose often 76.6 µM), for the others: top-dose activation (PINK1 increase), most hits filed as activators. actives 0.2% (n = 410,000). AID 624263; active = well fitted activation curve with a large enough effect; inconclusive = small, poorly fitted or top-dose-only effect; inactive = flat fitted curve, though single readings scatter; cell line not stated here;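 also: potency is read from the fitted curve at half-maximal effect; % of control where 0% means no effect; nearly all actives have a fitted effect of over 65% in size; a mitochondrial uncoupler was the plate control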
#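 Compound titrations (5 concentrations, 24 h) on a stable cell line; DMSO and CCCP controls. Endpoint: fixed-cell PINK1 immunofluorescence with mitochondrial, cell and nuclear markers, scanned by microplate cytometer.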
# D2 ag: activates the human D2 dopamine receptor; P14416; DiscoveRx PathHunter D2 beta-arrestin, luminescence, 90 min; 100% = 57 uM dopamine signal; activation, % (test concentration not listed); actives 0.084% (n = 360,000); in the data active = activation above about 40%; inconclusive = about 15% to 40%; inactive = below about 15%; also: compound concentration not given in the record; the text of the record calls up to 30% inactive
# Target sequence (P14416 whole entry, looked up): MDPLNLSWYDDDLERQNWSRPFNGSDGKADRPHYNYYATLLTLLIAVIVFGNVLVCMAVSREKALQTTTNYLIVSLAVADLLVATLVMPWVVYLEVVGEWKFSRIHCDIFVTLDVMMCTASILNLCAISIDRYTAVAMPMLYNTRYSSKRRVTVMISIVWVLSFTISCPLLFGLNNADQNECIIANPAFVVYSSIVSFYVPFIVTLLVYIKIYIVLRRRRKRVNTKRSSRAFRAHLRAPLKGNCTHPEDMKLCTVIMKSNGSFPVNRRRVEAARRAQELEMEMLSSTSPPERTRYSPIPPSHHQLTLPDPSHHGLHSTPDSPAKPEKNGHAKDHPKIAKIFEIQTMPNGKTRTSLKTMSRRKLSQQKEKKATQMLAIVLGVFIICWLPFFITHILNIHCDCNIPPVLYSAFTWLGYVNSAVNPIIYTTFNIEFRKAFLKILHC
#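 DiscoveRx PathHunter D2 beta-arrestin cells (2,100/well) attached overnight, then compound-stimulated 90 min at 37 C in HBSS/10 mM HEPES/0.1% Tween-20 buffer; beta-galactosidase complementation read by luminescence after 1 h at ambient temperature. Dopamine 57 uM final (EC100) as control.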
# Sfp PPTase inh: blocks B. subtilis Sfp PPTase activity. Potency, µM, inactives show max response, negative = inhibition, usual class: inhibitors. Q9F4F7. AID 1490. Biochemical Sfp PPTase activity, qHTS. actives 3.5% (n = 310,000); active = well fitted inhibition curve with a large enough effect; inconclusive = small, poorly fitted or top-dose-only effect, or another doubt; inactive = no such curve, though single readings can be large or run the other way;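 also: the enzyme is Sfp with the accession as filed and its product quenches rhodamine fluorescence; potency is read from the fitted curve at half-maximal effect; 0% = enzyme reaction without inhibitor and -100% = no enzyme wells; top concentration of the series not given in the record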
#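 Fluorescence-quenching assay with 15 nM Sfp, 5 uM rhodamine-CoA and 12.5 uM BHQ-2-labelled ybbR peptide in pH 7.6 Hepes/MgCl2 buffer. Enzyme was pre-incubated with compound for 15 min at room temperature. Rate was taken from the 30-min fluorescence change (525/598 nm).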
# gsp antag: gsp mutant antagonism. gsp-mutant cells, cAMP HTRF, 30 min; control for the full effect not named in the record. Potency, µM (series often up to 76.9 µM), without a hit: at the highest dose activity change, negative = inhibition, most hits filed as inhibitors. actives 0.4% (n = 340,000). AID 624288; active = falling curve of any shape with a large fitted effect; inconclusive = falling curve, mostly with a smaller effect; inactive = flat or rising curve; cell line not stated here;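 also: intracellular cAMP measured with PDE inhibitor Ro 20-1724 present during compound exposure; potency is read from the fitted curve at half-maximal effect; % is scaled to controls: 0 for no effect and ±100 for the full control effect; nearly all actives have a fitted effect of over 65% in size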
#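 HTRF cAMP read-out (cAMP-d2 plus anti-cAMP antibody-K in lysis buffer, 30 min RT). Before lysis, cells are exposed to compounds with […] for 30 min at 37C in DPBS containing Ca/Mg, BSA and Tween 20.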
# Menin-MLL FL inh: inhibitors of human menin-MLL interaction, wild-type MLL peptide | Fluorescence polarization, fluorescein-MLL peptide displacement from menin | FP activity change, % at 61.4 µM | 290,000 tested, under 10 active | AID 1766; inconclusive = falling polarisation curve, or a change in total fluorescence; inactive = total fluorescence flat and polarisation flat or rising; no compound was filed as active; the % refers to the polarisation; negative = inhibition;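 also: % of control where 0% means no effect; inhibitors lower the polarisation; unlabelled MLL peptide was the positive control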
# Numbers without * were called inactive; ? = inconclusive; nt = not tested or not shown; & = joins results of further samples; [ ] = remark or other dose.
SMILES,ClpP mod,gsp agonist,PINK1 expr mod,D2 ag,Sfp PPTase inh,gsp antag,Menin-MLL FL inh
O=C(c1cc(-c2ccncc2)nc2ccccc12)N1CCN(c2ncccn2)CC1,0.6%,2.6%[15.4 µM],5.7%,12.8,nt,-7.7%,nt
C[C@@H]1CN([C@H](C)CO)C(=O)CCCn2nncc2CO[C@@H]1CN(C)C(=O)Nc1ccc2c(c1)OCO2,-1.8%,?,2.0%,1.6,nt,nt,nt
CCCC1(c2ccccc2)NC(=O)N(CC(=O)Nc2cc(C)on2)C1=O (centres undefined),-1.1%,-4.7%,-1.0%,1.3,19.6%,-0.1%,0.1
Cc1ccc2nc(SCC(=O)Nc3ccc(Cl)cc3)nc(=O)n2c1,1.1%,25.1%[15.4 µM],-0.3%,-6.2,nt,10.2%,nt
O=C(NCCN1CCOCC1)/C(=C\c1ccc(F)cc1)NC(=O)c1ccccc1,1.9%,-42.3%[inhibitor],-0.4%,-6.2,9.0%,1.2%,nt
Cc1ccc(C)n1/N=C1/NC(=O)CS1,-18.1%,-31.2%[inhibitor],1.1%,-2.2,?,-10.2%,?
CCOC(=O)c1ccccc1NC(=O)COC(=O)CSC(C)C(=O)Nc1cc(C)on1 (centres undefined),-2.8%,7.5%[15.4 µM],-1.2%,0.4,9.4%,-2.5%,nt
O=C(O)CCCCCN1C(=O)C2CCCCC2C1=O (centres undefined),1.3%,-12.2%,-1.0%,-2.7,13.1%,11.2%,-0.7
O=C(O)CSc1nc(SCc2ccccc2Cl)nc2c1CCCC2,-1.7%,22.9%,-1.4%,-1.1,17.3%,-25.4%,3.6
Cc1nn(CC(=O)N(C)C)c(=O)c2ccccc12,-3.4%,1.4%,-1.1%,-1.2,10.0%,6.7%,1.8
C=CCNC(=O)COc1ccc(N(C)S(=O)(=O)c2ccc(NC(C)=O)cc2)cc1,-0.6%,-10.9%[15.4 µM],2.5%,2.8,18.4%,12.2%,1.5
COc1ccc(Cl)cc1C(=O)NNC(=O)C1COc2ccccc2O1 (centres undefined),nt,0.9%[15.4 µM],1.0%,-0.7,10.8%,-3.8%,-0.6
Cc1ccc2c(CC(=O)O)coc2c1C,0.7%,-26.7%,-1.1%,-3.5,-6.6%,1.2%,-3.4
O=C(CCC(=O)N1CCN(S(=O)(=O)c2ccc(Cl)cc2)CC1)Nc1cccc(Br)c1,0.5%,-20.2%,4.5%,-6.6,11.9%,-3.5%,5.2
COc1ccc(C(=O)Nc2cc(C)nn2-c2nc3ccccc3[nH]2)c(OC)c1,?,-17.3%,4.1%,-18.9,-0.3%,?,-4.1
CC12C(=O)N(c3ccccc3)C(=O)C1C(c1ccccc1)N1CCCN12 (centres undefined),-5.2%,-2.0%[15.4 µM],1.2%,-3.2,4.8%,7.9%,1.4
C#CCOc1ccc(/C=C2/C(=O)N(c3cccc(C(=O)O)c3)N=C2C)cc1OC,nt,8.4%,0.0%,-3.5,?,-13.4%,-1.8
COc1cccc(C(=O)NNc2nc(C)cc(C)n2)c1,0.9%,-35.1%[inhibitor],1.1%,-2.6,-25.5%,6.4%,3.9
C=CCn1c(SCc2cc(=O)n3ccsc3n2)nc2scc(C3CC3)c2c1=O,-1.6%,12.1%,1.2%,2.2,-23.0%,4.1%,10.1
O=c1[nH]c2ccc(Cl)cc2c(-c2ccccc2)c1N1CCOCC1,-11.8%,-38.0%[inhibitor],0.3%,2.1,-7.0%,4.9%,-0.8
Cn1c(=O)c(=O)n(C)c2cc(N3CCOCC3)c(NS(=O)(=O)c3ccc(Br)cc3)cc21,?,-8.7%,1.2%,4.0,44.7µM*,-18.3%,4.9
Cc1ccc2cc(CN(C(=O)C3CCCO3)C3CCCCC3)c(=O)[nH]c2c1 (centres undefined),?,-35.1%[inhibitor],-2.2%,-2.0,9.8%,0.6%,0.4
CCCS(=O)(=O)NC(=O)C1(C)CCN(C(=O)COCc2ccccc2)C1 (centres undefined),2.2%,nt,0.2%,-2.3,nt,nt,nt
CCNc1ccc(C(=O)OCC)cc1NC(=O)c1cccc(S(=O)(=O)N(C)c2ccccc2)c1,-4.8%,-3.0%,0.1%,2.3,11.9%,-5.1%,5.2
CCNC(=O)N(C)C[C@H]1N[C@@](C)(C(=O)OC)[C@H]2C(=O)N(Cc3ccccc3)C(=O)[C@@H]12,1.8%,nt,0.7%,-3.1,nt,9.8%,nt
COc1cc(C2C3=C(CCCC3=O)Nc3[nH]n(-c4ccccc4)c(=O)c32)cc(OC)c1OC (centres undefined),nt,14.0%,1.0%,-4.2,-1.3%,-3.8%,1.3
Cc1cccc(C)c1Cn1c(C)c(C(=O)NCc2cccc(Cl)c2)sc1=O,-3.5%,nt,1.6%,5.6,nt,nt,nt
Cc1ccc(NC(=O)Cn2ncn3c(cc4ccccc43)c2=O)c(C)c1,?,?,1.3%&0.0%,-1.1,8.9%,5.4%,-7.9
Cc1cc(C[n+]2ncsc2N)c2ncccc2c1,0.5%,-8.8%,-0.8%,-3.7,10.4%,-0.8%,-2.0
CCOc1ccc(-c2c(=O)n(O)c3ccccc3[n+]2[O-])cc1,-6.2%,-12.5%,2.1%,5.3,-21.6%,-12.2%,-3.4
N#Cc1ccccc1OCC(=O)OCCCOC(=O)COc1ccccc1C#N,-3.4%,-1.8%,3.6%,-0.7,0.1%,3.4%,nt
COc1ccc(OC)c(Nc2nc(N)c([N+](=O)[O-])c(NC3CCCCC3)n2)c1,-0.6%,-11.0%,3.5%,1.5,7.8%,-2.2%,-1.4
CN(c1ccc(C(=O)N2CCN(Cc3ccccc3)CC2)cc1)S(=O)(=O)c1ccc(Cl)cc1,-3.5%,-54.9%[inhibitor],2.8%,?,5.1%,?,3.5
COC(=O)c1ccc(S(=O)(=O)N2CCCCCC2)n1C,-0.1%,-32.0%[inhibitor],0.9%,0.9,-4.4%,-2.7%,-0.4
CCOC(=O)C1=CCN(S(=O)(=O)c2ccccc2[N+](=O)[O-])C1c1ccc(C)cc1 (centres undefined),1.5%,nt,0.0%,3.6,nt,nt,nt
COc1ccc(N=C2SC(C(=O)N3CCN(c4ccccc4)CC3)CC(=O)N2C)cc1 (centres undefined),0.6%,?,3.1%,-1.0,12.0%,-7.9%,-0.7
CC(C)(C)OC(=O)NCCCCCc1nnc(SCC(=O)Nc2cccc(Cl)c2)o1,-1.9%,13.3%,0.3%,3.2,38.7%[activator],35.5µM*,3.4
Cc1ccc(SCc2cc(=O)[nH]c(/N=C(\N)Nc3cccc4ccccc34)n2)cc1,-5.7%,-20.0%,-1.4%,-0.9,1.6%,10.4%,4.6
CC(=O)Cn1cnc2c(cnn2-c2ccc(F)cc2)c1=O,-12.5%,-45.0%[inhibitor],1.4%,-1.1,nt,nt,nt
CCc1nc2ccc(C(=O)Nc3cccc(OCC(=O)N(C)C)c3)cn2c1N(C)Cc1ccc(OC)cc1,-2.7%,nt,1.3%,?,nt,nt,nt
Brc1ccc(C2=Nc3cccc4cccc(c34)N2)o1,0.6%,-72.4%[inhibitor],0.2%,?,-18.3%,11.6%,?
Fc1ccc(-c2nnc(CN3CCC(c4nc5ccccc5s4)CC3)o2)cc1,-1.0%,-8.5%,4.2%,-1.6,18.2%,?,-2.9
CC(C)C[C@H]1CNC(=S)N1CC1CCCN1C[C@H](Cc1ccccc1)N1C[C@H](Cc2ccc(O)cc2)N(CC2CCCCCC2)C1=S (some centres undefined),0.8%,nt,?,-0.4,nt,2.2%,nt
O=C(OCc1ccccn1)c1ccc(COc2ccccc2Cl)o1,-3.3%,7.2%,-0.6%,0.8,4.2%,9.3%,-1.0
CCCCC1=NN(C(=O)c2cocc2C)C(O)(C(F)(F)F)C1 (centres undefined),0.6%,-21.6%,2.9%[38.3 µM],2.1,11.9%,-12.4%,0.2
O=C(c1ccc2ccccc2c1)C1CCCN(C(=O)c2cccnc2)C1 (centres undefined),-20.8%,-3.5%[15.4 µM],0.5%,-10.7,7.8%,-8.5%,nt
CCCCN1CC(=O)N2[C@H]3c4cc(Br)ccc4OC[C@@H]3[C@H](C(=O)OCC)[C@]2(C)C1=O,1.0%,1.2%,1.3%,1.1,nt,1.4%,nt
O=C(NCc1ccc(F)cc1)C(Cc1ccccc1)n1cccc1 (centres undefined),1.0%,1.8%,4.2%,-2.1,11.3%,0.2%,3.1
Cc1sc2ncnc(N3CCC(C)CC3)c2c1C,-0.1%,1.6%,0.7%,-4.3,13.1%,?,0.2
Cc1nc2c(=O)[nH]n(C)c2nc1C,1.1%,-0.7%,0.0%,-2.7,nt,nt,nt
Cc1ccc2cc(CN(Cc3ccco3)C(=S)NCC3CCCO3)c(=O)[nH]c2c1C (centres undefined),-7.3%,13.0%,3.6%,-3.0,-3.1%,4.1%,4.6
O=C(CSc1nnc(CNC(=O)c2ccccc2)o1)NCc1ccc2c(c1)OCO2,1.4%,-16.2%[15.4 µM],-0.8%,-5.4,7.5%,9.7%,nt
CCOC(=O)/C=C/c1ccc2oc3ccccc3c(=O)c2c1,?,-21.0%,-0.6%,-3.9,0.6%,-8.6%,-1.8
Cc1ccc(CNc2nc(NCc3ccccc3)nc3ccsc23)c(C)c1,4.5%,nt,-1.1%,-7.5,nt,nt,nt
O=c1cc(OCc2ccccc2)cc[nH]1,0.7%,1.0%,0.1%,1.5,nt,13.7%,nt
CCC(=O)NCCc1cc2ccc(C)c(C)c2[nH]c1=O,4.2%,25.6%,-0.6%,1.0,-1.3%,-1.4%,1.9
Cc1nc(N)sc1C(=O)N/N=C/c1ccc([N+](=O)[O-])cc1,nt,7.0%[15.4 µM],0.3%,-1.5,-6.7%,22.7%,5.1
COc1ccc(CN(C(=O)c2snc(C(N)=O)c2N)C(C(=O)NC2CCCC2)c2cc(OC)ccc2OC)cc1 (centres undefined),-0.2%,-7.8%[15.4 µM],0.2%,-4.0,-4.3%,-10.4%,-5.0
O=S(=O)(NC1CCCCC1)c1ccc(S(=O)(=O)N2CCN3CCCC3C2)cc1 (centres undefined),-0.4%,-6.1%,-0.1%[38.3 µM],3.7,2.7%,7.9%,-1.4
Cc1ccc(-c2nc(NCc3ccco3)c3ccccc3n2)cc1,-9.7%,6.0%,11.5%,-14.5,0.1%,?,0.2
